RE007 growth inh: qHTS Assay for Inhibitors of the HIV-1 protein Vpr; S. pombe RE007 Vpr strain, BacTiter-Glo ATP luminescence, 24 h; control for the full effect not named in the record; Potency, µM (top dose mostly 92.2 µM), without a hit: top-dose activity change, negative = less growth; hit rate 0.21% among 360,000; AID 651644, 2012; active = well fitted falling curve with a large enough effect; inconclusive = small, poorly fitted or top-dose-only effect; inactive = no such curve, though single readings can be large or run the other way;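 further: on the % scale 0 is the no-effect control and ±100 the full control effect; nearly all actives have a fitted effect of over 50% in size; the assay follows cell death caused by Vpr and the record does not say whether a fall means rescue or toxicity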
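Fission yeast strain RE007, carrying one chromosomally integrated HIV-1 vpr copy, was seeded at OD 0.01 in PMG+AL medium with 23 nL pinned compound. After 24 h at 30 °C and 99% humidity, viability was read by BacTiter-Glo luminescence.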
LASV entry inh: qHTS for Inhibitors of binding or entry into cells for Lassa Virus; Lassa virus pseudotype entry inhibition, cell reporter; control for the full effect not named in the record; Potency, µM (doses to about 37.9 µM), for the others: at the highest dose activity change, negative = inhibition, usual class: inhibitors; hit rate 1.2% among 300,000; AID 540256, 2011; active means well fitted inhibition curve with a large enough effect; inconclusive means small, poorly fitted or top-dose-only effect, or effect the other way; inactive means flat fitted curve, though single readings scatter; tested in HEK293 cells; further: on the % scale 0 is the no-effect control and ±100 the full control effect; nearly all actives have a fitted effect of over 50% in size; luciferase read-out
StopGo reporter: High Throughput Screening for Foot and Mouth Disease Virus Antivirals | human cells with a luciferase reporter of 2A StopGo recoding; control for the full effect not named in the record | Potency, µM (titrated, usually from 57.9 µM), inactives show at the top dose signal change, negative = less light | hit rate 1.2% among 410,000 | AID 1159524, 2015; active = well fitted falling curve with a large enough effect; inconclusive = small, poorly fitted or top-dose-only effect; inactive = no such curve, though single readings can be large or run the other way; tested in HEK293T cells; further: on the % scale 0 is the no-effect control and ±100 the full control effect; nearly all actives have a fitted effect of over 45% in size; luciferase light after 4 h
MARV entry inh: qHTS for inhibitors of binding or entry into cells for Marburg Virus; Marburg virus pseudotyped entry inhibition, cell reporter; control for the full effect not named in the record; about a third of the inactives were read at about 46 µM; Potency, µM (doses to about 37.8 µM), for inactives: top-dose activity change, negative = inhibition, hits mostly inhibitors; hit rate 1.8% among 300,000; active = well fitted inhibition curve with a large enough effect; inconclusive = small, poorly fitted or top-dose-only effect, or effect the other way; inactive = flat fitted curve, though single readings scatter; tested in HEK293 cells; about a fifth of its hits are not listed in these tables; further: on the % scale 0 is the no-effect control and ±100 the full control effect; luciferase read-out
NS1 inh: qHTS Assay for Inhibitors of Influenza NS1 Protein Function | S. cerevisiae slowed by influenza A NS1, growth recovery by OD600 | Potency, µM (top dose mostly 46.1 µM), inactives show at the top dose activity, positive = more growth | hit rate 0.4% among 270,000 | AID 2326, 2010; active means well fitted rising curve with a large enough effect; inconclusive means small, poorly fitted or top-dose-only effect; inactive means no such curve, though single readings can be large or run the other way; further: nearly all actives have a fitted effect of over 50% in size
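Growth recovery, yeast-based: influenza A NS1 expressed in S. cerevisiae causes slow growth, and suppressors are detected by OD600. The parent strain without NS1 is used as positive control.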
Cruzain inh Det: qHTS Assay for Promiscuous and Specific Inhibitors of Cruzain (with detergent); Potency, µM, without a hit: max response, negative = inhibition, actives largely listed as inhibitors; hit rate 0.43% among 200,000; Cruzipain (Trypanosoma cruzi), P25779; AID 1478, 2009; purified cruzain, Z-FR-AMC fluorescence, 0.01% Triton;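 further: plate controls were neutral wells for no effect and buffer without enzyme for full effect; nearly all actives have a fitted effect of over 40% in size; top concentration of the series not given in the record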
Target sequence (P25779 123-467 limits assumed): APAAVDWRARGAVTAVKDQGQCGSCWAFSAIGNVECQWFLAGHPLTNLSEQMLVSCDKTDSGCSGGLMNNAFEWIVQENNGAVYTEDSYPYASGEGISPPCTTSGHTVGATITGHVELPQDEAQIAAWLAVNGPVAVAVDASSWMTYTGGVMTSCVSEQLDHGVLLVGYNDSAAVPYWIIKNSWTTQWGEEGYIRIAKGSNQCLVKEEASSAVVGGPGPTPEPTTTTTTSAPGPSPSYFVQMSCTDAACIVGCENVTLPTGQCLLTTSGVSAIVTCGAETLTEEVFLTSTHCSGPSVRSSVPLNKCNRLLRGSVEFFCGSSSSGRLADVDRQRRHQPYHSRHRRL
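Compounds were screened in titration against cruzain (1.5 nM) with 0.01% Triton X-100 to counter colloidal aggregation. Activity was the AMC fluorescence increase over 60 s after adding 2 uM Z-FR-AMC at pH 5.5.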
SARS PLpro yeast: qHTS of Yeast-based Assay for SARS-CoV PLP; Potency, µM (series often up to 32.9 µM), for inactives: at the highest dose activity, positive = growth rescue; AID 485353, 2010; S. cerevisiae expressing SARS-CoV PLpro, growth rescue; control for the full effect not named in the record; hit rate 0.19% among 330,000; active means well fitted rising curve with a large enough effect; inconclusive means small, poorly fitted or top-dose-only effect; inactive means no such curve, though single readings can be large or run the other way; further: 0% is about no effect; nearly all actives have a fitted effect of over 55% in size; growth read by luminescence after 48 h
Cruzain noTriton: qHTS Assay for Promiscuous and Specific Inhibitors of Cruzain (without detergent); hit rate 2.3% among 200,000; purified cruzain, Z-FR-AMC fluorescence, no detergent; AID 1476, 2009; Potency, µM, inactives show max response, negative = inhibition, most hits filed as inhibitors;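 further: plate controls were enzyme without inhibitor for no effect and buffer without enzyme for full effect; nearly all actives have a fitted effect of over 40% in size; top concentration of the series not given in the record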
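Detergent-free condition (0.00005% Triton X-100) in acetate buffer pH 5.5 with DTT. 1.5 nM enzyme and compound were pre-mixed 15 min, then 2 uM Z-FR-AMC substrate added; reaction progress from fluorescence change between first and third reads (60 s).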
An asterisk follows results filed as active; ? = inconclusive; / = no result given; & = joins results of further samples; [ ] = another dose, or the depositor's remark. Unless noted, the call rests on the fitted dose curve; in most records, active means well fitted curve in the direction sought with a large enough effect; inconclusive means small, poorly fitted or top-dose-only effect, or another doubt; inactive means no such curve, though single readings can be large; an effect the other way counts as inactive or inconclusive. Potency means the concentration at half of the fitted maximal effect.

SMILES	RE007 growth inh	LASV entry inh	StopGo reporter	MARV entry inh	NS1 inh	Cruzain inh Det	SARS PLpro yeast	Cruzain noTriton
Nc1c(-c2ccccc2)cnn1C1CCS(=O)(=O)C1 (stereo not drawn)	6%	7%	-2%	6%	-1%	2.3%	1%	-6%
COc1cccc(-c2cc(C(=O)NCc3cccs3)no2)c1	-12%	10%	36%[activator]	?	6%	/	1%	/
Cc1cc(Br)c(S(=O)(=O)n2nnc3ccccc32)cc1C	7%	9%	/	14%	-2%	5.6%	-6%	3%
COc1cc(C(=O)OCC(=O)Nc2cc(C)on2)c([N+](=O)[O-])cc1OC	1%	4%	-13%	-10%[46.1 µM]	/	/	-3%	/
CSc1ncccc1C(=O)Nc1ccc2c(c1)OCO2	-3%	15%	9%	?	/	/	-2%	/
Cc1nc2ccc3nc(NC(=O)c4ccc(S(=O)(=O)N5CCOCC5)cc4)sc3c2s1	0%	14%[14.3 µM]	12%	-12%	-1%	2.5%	2%	22%
O=C(CCC1CCCN(C(=O)C2(c3ccccc3)CC2)C1)N1CCN(c2ccccn2)CC1 (stereo not drawn)	-11%	?	?	?	1%	/	0%	/
COc1cc(C)c(Br)cc1S(=O)(=O)N1CCCC1	-7%	-1%	-14%	?	-41%	-0.9%	-1%	6%
O=C(c1cccc(F)c1)N1CCN(C(=O)c2cc(-c3ccc(Cl)cc3Cl)on2)CC1	3%	10%	/	7%&1%	?	-5.6%	2%	?
O=C(CSCc1cnn(-c2ccccc2)c1-n1cccc1)NCc1ccc(Cl)cc1	/	?	-13%	-10%[46.1 µM]	/	-1.8%	/	6%
COc1ccc(S(=O)(=O)N2CCC(NC(=O)Nc3ccc(C)cc3)CC2)cc1	2%	-7%	-22%	27%	-42%	-5.3%	-6%	-4%
Cc1cc(Cl)c2oc(C(=O)N(C)Cc3ccon3)c(C)c2c1	-4%	/	28%	/	-34%	/	-27%	/
COc1ccc(/C=N/N(C)C2=NS(=O)(=O)c3ccccc32)cc1OC	-4%	-4%[46.1 µM]	-20%	11%[46.1 µM]	3%	/	4%	/
Cc1sc2c(c1C)CN(Cc1ccncc1)CN2C(=O)c1ccco1	-15%	0%	/	6%	-11%	1.8%	-6%	-9%
CC(=O)Nc1cc2oc3ccccc3c2cc1[N+](=O)[O-]	-9%	1%	40%[activator]	3%	/	/	/	/
COc1ccc(F)cc1S(=O)(=O)N1CCN(Cc2ccc3c(c2)OCO3)CC1	14%	-1%	0%	?	-16%	2.2%	-1%	22%
O=C(c1ccco1)c1nc2c(n1O)CCCCC2	0%	3%	7%	?	-51%	-2.5%	-9%	-9%
CN1C(C)(C)CC(=NOC(=O)c2ccccc2)CC1(C)C	9%	-1%	-3%	-14%	-2%	-0.6%	3%	2%
Cc1sc2nc(SCC(=O)Nc3cccc(C(=O)O)c3)[nH]c(=O)c2c1C	1%	4%	-20%	13%	/	/	-1%	/
Cc1onc(-c2ccccc2Cl)c1C(=O)N1CCN(c2cccc(Cl)c2)CC1	-1%	/	?	/	-80%	-1.7%	0%	?
CC(C)(C)NS(=O)(=O)c1cc2c3c(c1)CCN3C(=O)CC2	6%	/	-4%	/	8%	/	3%	/
O=C(NC(=S)NCC1CCCO1)c1ccccc1Br (stereo not drawn)	-5%	3%	-19%	?	7%	0.0%	8%	-27%
ON1C(c2ccc(Cl)cc2Cl)N(O)[C@H]2CCCC[C@H]21 (stereo partly drawn)	0%	-18%	8%	-2%	2%	1.8%	-6%	-14%
CC(C)NC(=O)C(c1ccc(F)cc1)N(Cc1ccco1)C(=O)CCC(=O)Nc1ccccn1 (stereo not drawn)	-20%	17%	-7%	-8%[46.1 µM]	-10%	/	1%	/
COc1ccc(S(=O)(=O)N2CCCCC2)cc1NC(=O)Cn1c(=O)cnc2ccccc21	0%	-11%	-18%	8%	/	/	/	/
CC(SCCc1ccccn1)C(=O)O (stereo not drawn)	27%	18%	-8%	6%	2%	3.4%	2%	-2%
CC(=O)N(C)c1nc(-c2ccc(Cl)cc2)cs1	12%	11%	/	2%	-9%	-0.4%	2%	-2%
Cc1c(CN2CCC(n3nccc3NC(=O)CCc3ccccc3)CC2)cnn1C	2%	/	-10%	/	21%	/	1%	/
CCn1c(=O)c2cc(C(=O)NCC(OC)OC)sc2c2ccccc21	4%	-6%[46.1 µM]	-1%	7%[46.1 µM]	-7%	/	-5%	/
COc1ccc(S(=O)(=O)N2CCC(C(=O)N3CCN(c4ccccc4OC)CC3)CC2)cc1	13%	-19%	0%	28%&28%	-11%	0.1%	-1%	?
Cc1ccc(NC(=O)C2CCN(S(=O)(=O)c3c(C)noc3/C=C/N(C)C)CC2)cc1	5%	/	-20%	/	20%	/	0%	/
COC(=O)c1cc(=O)n(-c2ccc(C(F)(F)F)cc2)[nH]1	-9%	23%[46.1 µM]	7%	0%[46.1 µM]	16%	/	8%	/
CCn1cc(C(=O)NCc2ccccc2OC)c(=O)c2ccc(C)nc21	-3%	?	-18%	3%	-5%	2.8%	1%	-4%
C=CCN(C(=O)c1csnn1)C(C(=O)NC1CCCCC1)c1ccccc1 (stereo not drawn)	1%	-6%[46.1 µM]	1%	-14%[46.1 µM]	4%	/	-1%	/
Cc1ccc(C(NC(=O)Cc2cccs2)C(=O)Nc2ccc(C(C)C)cc2)cc1 (stereo not drawn)	/	0%[46.1 µM]	10%	1%[46.1 µM]	/	-3.3%	/	19%
Cc1ccc(C(=O)OCC(=O)Nc2ccc(N(C)C)cc2)cc1NC(=O)c1ccco1	3%	2%	-3%	2%[46.1 µM]	-1%	-0.2%	8%	-6%
COc1ccc(C2CC(=O)Oc3cc(C)c(Cl)c(C)c32)cc1 (stereo not drawn)	2%	/	0%	/	/	7.8%	-59%	4%
CC(C)CNc1ncnc2onc(-c3ccc(Cl)cc3)c12	/	-2%[46.1 µM]	-21%	-13%[46.1 µM]	/	-3.3%	/	-5%
CCc1ccc(N2C(=O)C3C(C2=O)N2CCCN2C3c2ccccc2)cc1 (stereo not drawn)	-10%	14%	-2%	?	-6%	/	-3%	/
CC(C)(C)c1ccccc1NC(=S)NC1CCCCC1	-11%	-11%	3%	?	/	/	?	/
Cc1ccc(C(=O)N(C)CCOc2ccccc2)cc1S(=O)(=O)N1CCOCC1	-13%	-1%	-7%	23%	/	/	-2%	/
c1ccc(Oc2cccc(NC3=NCCC3)c2)cc1	-7%	8%	-3%	-4%	-8%	2.9%	1%	7%
COc1ccc(NC(=O)c2cc(S(=O)(=O)N3CCOCC3)ccc2N2CCOCC2)cc1	5%	-3%	6%	-1%	-22%	/	-2%	/
CCOC(=O)/C(=N\Nc1cc(Cl)ccc1Cl)N1CC(C)OC(C)C1 (stereo not drawn)	0%	/	-15%	/	-2%	/	-1%	/
COc1ccc2[nH]c(=O)c(CN(C(=O)C3CCCO3)c3ccc(C)cc3)cc2c1 (stereo not drawn)	11%	-14%	-23%	?	-16%	-0.8%	-7%	-5%
C=CCn1c(SCc2ccccc2)nc2c1c(=O)[nH]c(=O)n2C	10%	/	32%[activator]	/	13%	/	-2%	/
Fc1ccc(-c2nnc3sc(C4COc5ccccc5O4)nn23)cc1 (stereo not drawn)	9%	?	3%	13%	-145%	-5.1%	-48%	-19%
O=C(Cc1cccc2ccccc12)N/N=C/C=C/c1cccc([N+](=O)[O-])c1	2%	-15%	-23%	?	19%	-7.3%	2%	?
Cc1[nH]c2ccccc2c1CCN(Cc1cccnc1)C(=S)Nc1cccc(F)c1	-8%	?	4%	?	/	/	4%	/
COc1ccc(C23NCCN2C(=O)c2ccccc23)cc1 (stereo not drawn)	8%	2%[46.1 µM]	-17%	-13%[46.1 µM]	2%	/	-2%	/
CCCCOC(=O)CSc1nnc(-c2ccccc2)o1	/	?	-10%	/	/	-1.3%	/	-21%
CCC1CN(C(=O)N2CCC(C(=O)O)CC2)c2cc(C)ccc2O1 (stereo not drawn)	/	13%[46.1 µM]	-12%	?	/	-1.6%	/	-3%
C=CCN1c2ccccc2[C@]23C[C@@H](C(=O)OC)N(C(=O)c4cc(C)oc4C)C2=NC(C(=O)OC)=C(C(=O)OC)[C@H]13	-1%	/	?	/	6%	/	1%	/
Cc1cccc(-n2ncc3c(Nc4ccc(F)cc4)ncnc32)c1	-5%	/	12%	/	-2%	-0.7%	-9%	0%
Cc1ccc(OCc2cc(C(=O)NCc3cnn(-c4cccc(F)c4)c3)no2)cn1	15%	/	18%	/	-23%	/	-2%	/
CC(C)C1N(C(N)=S)N=CC1(C)C (stereo not drawn)	2%	-19%	-15%	8%	5%	/	2%	/
Cc1ccccc1CS(=O)(=O)c1ncc(Cl)c(C(=O)Nc2ccc(F)cc2)n1	-6%	/	?	/	-27%	/	-13%	/
O=C(Nc1ccc(C(=O)O)cc1)/C(=C\c1ccc2c(c1)OCO2)NC(=O)c1ccc(Br)o1	-9%	-8%	-6%	1%[46.1 µM]	/	/	-1%	/
Cc1cn(S(=O)(=O)c2ccc(Cl)cc2)c(C)n1	-5%	3%	-3%	-4%	-6%	/	-2%	/
CN(CC(=O)Nc1ccc(F)c(Cl)c1)S(=O)(=O)c1ccc2c(c1)n(C)c(=O)c(=O)n2C	0%	/	-14%	/	-1%	/	-2%	/
Cc1cc(NC(=O)CSCC(=O)Nc2cc(C(F)(F)F)ccc2N2CCCCC2)no1	-17%	-1%	-2%	-10%	/	/	/	/
Cc1ccccc1NC(=O)c1cnn(-c2ccccc2)c1C	-1%	5%	12%	?	-17%	/	1%	/

Source: PubChem BioAssay
